Screening results from PubChem BioAssay.
Vaccinia pol inh: blocks vaccinia virus processive DNA synthesis; in vitro processive DNA synthesis, absorbance read-out; active compounds read low; some inactives read as strong as hits; normalized absorbance, % (test concentration not listed); 46,000 compounds, 0.94% hits; AID 493162;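 active = replicate mean up to 90% and picked by the depositor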;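 note: 100% = median of the test wells of a plate; 100 nL library stock went into each well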
* marks the source's active call; other numbers are inactive results. The list is partial. The share of hits here may be higher or lower than overall.

SMILES	Vaccinia pol inh
Cc1cc(C)n2nc(Nc3ccccc3)cc2n1	89
Oc1c(Br)cc(Br)c2cccnc12	100
CCOC(=O)c1cc(S(=O)(=O)NCC2CCCO2)cn1C (stereo unspecified)	97
CCc1nonc1NC(=O)c1ccc(C)cc1	102
C[C@]12C=CC(=O)C=C1CCC1C2[C@@H](O)C[C@@]2(C)C1CC[C@]2(O)C(=O)CO (stereo partly specified)	99
CNC(=O)C1CCN(S(=O)(=O)c2ccc3c(c2)nc(C)n3C2CCCC2)CC1	100
COc1ccc2cc(S(=O)(=O)c3ccccc3)c(=O)oc2c1	120
O=C1C(=Nc2cccnc2)c2ccccc2N1CN1CCOCC1	100
Cc1ccc(-n2c(-c3ccccc3)csc2=NC(=O)c2ccccc2)cc1	100
O=c1ccc2cc3c(-c4ccc(F)cc4)coc3cc2o1	100
O=C1COc2ccccc2CN1c1ccc(Cl)cc1	100
CCSC1(SCC)N=C(N)C2(C#N)C(c3ccc(F)cc3)C12C#N (stereo unspecified)	100
CCC(=O)Nc1nc(-c2ccc3c(c2)OCCO3)cs1	102
COc1cc(-c2noc(-c3c(-c4ccccc4Cl)noc3C)n2)cc(OC)c1OC	103
CC1(C)CC(=O)C2=C(C1)Nc1ccccc1N(C(=O)C1CC1)C2c1cccs1 (stereo unspecified)	97
CCC1(c2ccccc2)C(=O)NC(=O)NC1=O	100
COC(=O)C1=CN(Cc2cccs2)C=C(C(=O)OC)C1c1cccc(OC)c1	100
COc1ccc(-c2nc(COc3ccccc3Cl)nc(SC)c2C#N)cc1	99
CC1(C)Cc2c(c(N3CCOCC3)[nH]c(=S)c2C#N)CS1	100
Cc1ccc(S(=O)(=O)NC(=O)N(C)CCc2ccccn2)cc1	103
CC1N=C(SCC#N)N2C(C)N=C(SCC#N)N12 (stereo unspecified)	100
CC(C)(C)C1CCC(OC(=O)CN2CCOCC2)CC1 (stereo unspecified)	102
CCSc1ccc(NC(=O)CC2c3ccccc3Oc3ccccc32)cc1	100
O=C(CCCn1c(=O)c2cccn2c2ccccc21)N1CCCCC1	103
COc1ccc(NC(=O)c2cc(-c3cccs3)nc3ccccc23)cc1	100
Cc1ccc2oc(-c3ccccc3)c(CN3CCOCC3)c(=O)c2c1	98
Cc1[nH]c2ccccc2c1C=Nc1ccc(Cl)cc1C(=O)c1ccccc1	100
O=C1NC(=O)/C(=C\c2cn(Cc3ccccc3F)c3ccccc23)N1	98
NNC(=O)CNC(=O)C1COc2ccccc2O1 (stereo unspecified)	100
Cc1c(C(=O)OC2CCCC2)[nH]c2c1C(=O)CCC2	102
Clc1c(-c2nnc3n2CCC3)sc2ccccc12	98
Cc1nc(-c2ccc(Cl)cc2)c(-c2ccccc2)s1	96
CCC(=O)Oc1cccc(N2C(=O)C3C4C=CC(C4)C3C2=O)c1 (stereo unspecified)	99
O=S(=O)(/C=C/c1ccccc1)N1CCc2ccccc2C1	100
Cn1c(=O)cc(SCC(=O)NCc2cccnc2)c2ccccc21	104
COc1ccc(CCNC(=O)c2ccc(Sc3ccc(C)cc3)c(NC(C)=O)c2)cc1OC	95
COCCN(C(=S)Nc1cccc(Cl)c1C)C(C)c1ccccn1 (stereo unspecified)	88
CCCc1c(C(=O)NC2CCN(C(=O)OCC)CC2)cnn1-c1ccccc1	88
Cc1cc(C)c(S(=O)(=O)NCC23C=CC(O2)C2C(=O)N(c4ccc(Cl)cc4)C(=O)C23)c(C)c1 (stereo unspecified)	98
CCOC(=O)c1cnc2c(Cl)c(Cl)ccc2c1N(C)Cc1ccccc1	100
COc1ccc(/C=C/C(=O)N2CCOCC2)cc1	97
COc1ccc2c(c1)-c1c(ssc1=S)C(C)(C)N2C(C)=O	100
COC(=O)C1[C@H]2C[C@H]3c4[nH]c5ccccc5c4CCN3C[C@@H]2CC[C@@H]1O (stereo partly specified)	100
Brc1ccc(-c2nnc3sc(CNC4CCCC4)cn23)cc1	91
CN(C(=O)c1cc2c(s1)-c1ccccc1OC2)c1ccccc1	98
CN(C)c1ccc(NC(=O)c2sc(=S)[nH]c2N)cc1	101
CC(NC(=O)c1ccc(C(F)(F)F)cc1)C(c1cccs1)N1CCCC1 (stereo unspecified)	83
COc1ccc(/C=C/C(=O)NCc2nc3ccccc3[nH]2)cc1OC	103
Cc1ccc(N2CCN(C(=O)c3cccs3)CC2)c(C)c1	106
O=C1COc2ccc(NC(=O)Oc3ccccc3)cc2N1	94
CC1(C)CC(=O)C=C(NCCO)C1	102
CN1c2ccsc2-c2nc(SCc3ccc(Cl)cc3)ncc2S1(=O)=O	94
CCOC(=O)CSc1nc2ccccc2c(=O)n1CCN1CCOCC1	85
CNC(=O)CSc1nnc(-c2ccc(C(C)(C)C)cc2)n1-c1ccccc1	99
CCCn1c(O)c(N=O)c2ccccc21	100
Cc1ccc(Oc2ncccc2NC(=O)CC(CC(=O)O)c2ccccc2)c2c1CCC2 (stereo unspecified)	89
CCOC(Cn1c2ccccc2c2ccccc21)OCC	99
O=C1/C(=C/c2ccc(N3CCOCC3)cc2)CC/C1=C\c1ccc(N2CCOCC2)cc1	105
O=C(NCc1ccco1)NC(=O)c1ccc(-c2csnn2)cc1	100
COC1=CC(C)[C@@H]2C[C@H]3OC(=O)C[C@H]4C(C)=C(OC)C(=O)C([C@@]34C)[C@@]2(C)C1=O (stereo partly specified)	100

Remaining list, next part
SMILES	Vaccinia pol inh
C(=N\n1cnnc1)/c1ccc(N(c2ccccc2)c2ccccc2)cc1	107
O=C1CSCN1c1ccc(Oc2ccccc2)cc1	88
Oc1cccc(N=Cc2ccc(N3CCOCC3)cc2)c1	94
CC(=O)N1CCN(C(=O)c2cncc(Br)c2)CC1	92
Cc1ccc2c(c1)C1CN(C)CCC1N2Sc1ccc(Cl)cc1 (stereo unspecified)	95
O=C(COc1ccccc1O)c1ccccc1	97
COc1ccccc1NC(=S)N1CCCCC1CO (stereo unspecified)	99
CC(=O)Nc1ccccc1-c1ccc(C)o1	99
Cc1ccc(NC(C)C(=O)Nc2cccc(C(F)(F)F)c2)cc1 (stereo unspecified)	103
CC1CCCCN1S(=O)(=O)c1ccc(C(=O)Nc2cccc(-c3nc4ccccc4[nH]3)c2)cc1 (stereo unspecified)	100
CC(C)N(C(=O)CSCc1ccc(Cl)cc1)c1ccccc1	83
CCN(CC)c1ccc(C(=O)NCCO)cc1	102
Cc1ccc(/C=C/c2onc3c(=O)[nH]nc(C)c23)cc1	83
Cc1cc(Nc2cnn(-c3nc4ccccc4o3)c(=O)c2Cl)ccc1Br	90
CN(Cc1ccccc1)C(=O)Cn1ncn2cccc2c1=O	96
CN(Cc1ccccc1)C(=S)NC(=O)c1ccccc1	99
CCOC(=O)C(CC)Sc1nnc(NC(=O)Cc2cccs2)s1 (stereo unspecified)	99
Nc1nc2ccccc2cc1-c1cccs1	83
O=C(COC(=O)Cc1ccsc1)NC(c1ccccc1)c1ccccc1	93
CCOC(=O)c1cc(-c2ccccc2)n(CC(=O)N2CCc3ccccc32)c1C	100
C=C(C)[C@H]1Cc2c(ccc3c2O[C@@H]2COc4cc(OC)c(OC)cc4[C@@H]2C3=O)O1	101
O=C(NCc1ccc2c(c1)OCO2)C12CC3CC(CC(C3)C1)C2	101
CCN(CC)Cn1c(=S)oc2ccccc21	100
CSc1ccc(OCOc2ccc(SC)cc2)cc1	106
COc1cc2nc(SCC(N)=O)n3nc(CCn4c(C)nc5ccccc54)nc3c2cc1OC	92
C=CCn1cc(/C=C2/SC(=O)N(CC(=O)OC)C2=O)c2ccccc21	101
COc1ccccc1-c1cc(N)n(CCC#N)n1	104
CC(=O)N1CCSc2cc(S(=O)(=O)NCc3ccccc3)ccc21	104
O=C(Nc1nc2ccc3ccccc3c2s1)c1ccccc1Cl	96
Cc1cc(OCC(=O)N(Cc2ccc(C(C)C)cc2)C2CCS(=O)(=O)C2)cc(C)c1Cl (stereo unspecified)	100
Fc1cccc(Cl)c1CSC1=NCCN1	88
CC(C)Nc1ccccn1	100
Oc1ccccc1C1CC(c2cccc(Br)c2)=NC(c2ccc(Br)cc2)N1 (stereo unspecified)	106
CCc1cc(C(=O)OCC(=O)Nc2ccccc2F)c2ccccc2n1	109
COc1ccc(/C=C/C(=O)Sc2cccc3cccnc23)cc1	120
C=CCn1c2ccccc2c2nc3ccccc3nc21	92
CC1CN(C(=O)CCC(=O)N(C)Cc2ccccc2)c2ccccc2O1 (stereo unspecified)	102
O=C(c1ccccc1)c1ccc2c3c(cccc13)CC2	105
CCOC(=O)CN(C1=NS(=O)(=O)c2ccccc21)c1ccccc1	96
Cc1cccc(OCC(O)CN2C(C)(C)CC(O)CC2(C)C)c1 (stereo unspecified)	114
Cc1cc2nc3s/c(=C\c4ccc(C(C)C)cc4)c(=O)n3c2cc1C	100
C=CCn1cc(C(=O)NC2CCCC2)c(=O)c2cc(S(=O)(=O)N(CC)CC)ccc21	78
Cc1cccc(C(=O)c2c(N3CCOCC3)[nH]c(=O)c3ccccc23)c1	97
CCC(C(=O)NCc1ccccn1)c1ccccc1 (stereo unspecified)	102
Cc1cc2ccccc2n1CCNC(=O)C1(c2ccc(Cl)cc2)CCCC1	97

3 entries from above, ordered by SMILES length, smallest number first:
SMILES	Vaccinia pol inh
Fc1cccc(Cl)c1CSC1=NCCN1	88
CCC(C(=O)NCc1ccccn1)c1ccccc1 (stereo unspecified)	102
O=C(c1ccccc1)c1ccc2c3c(cccc13)CC2	105

The list continues.
SMILES	Vaccinia pol inh
O=C(NCCC1=CCCCC1)C1CCN(C(=O)c2cc3sccc3n2Cc2ccc(F)cc2)CC1	104
Cc1c(C(=O)N(C)Cc2ccccc2)sc2ncnc(N3CCN(c4ccccc4)CC3)c12	109
N[C@@H](Cc1ccc(N(CCCl)CCCl)cc1)C(=O)O	97
COc1ccc(-c2noc(N3CCC(C(=O)NC(C)c4ccccc4)CC3)n2)cc1 (stereo unspecified)	91
Cc1cc(NC(=O)CCS(=O)(=O)c2nc(-c3ccc4c(c3)OCO4)cc(C(F)(F)F)n2)no1	105
O=C(COc1ccccc1O)Nc1ccccc1Br	102
O=C1C2Sc3[nH]c(=O)sc3C(/C=C/c3ccccc3)C2C(=O)N1c1ccc(Br)cc1 (stereo unspecified)	98
COc1cc(O)sc1C=Nc1ccc(Cl)cc1	100
Cc1ccccc1Cn1c(=O)n(CCCS(=O)(=O)C2CCCCC2)c(=O)c2ccccc21	100
COc1ccc2nc(NC(=O)c3cccs3)sc2c1	104
COC(=O)c1ccc(CCl)o1	102
CCSc1nc2ccccc2c(=O)n1C1CCOC(C)(C)C1 (stereo unspecified)	100
Cc1ccc(C(=O)Nc2sc3c(c2C(=O)N(C)C)CCCCC3)cc1	99
O=C(COc1ccc(Br)cc1)NCc1ccco1	91
COC(=O)c1ccc(C(=O)Nc2ccccc2-c2nc3ccccc3[nH]2)cc1	88

Exported field by field: part of the list above
> Cc1cc(NC(=O)CCS(=O)(=O)c2nc(-c3ccc4c(c3)OCO4)cc(C(F)(F)F)n2)no1
  Vaccinia pol inh = 105

> O=C(COc1ccccc1O)Nc1ccccc1Br
  Vaccinia pol inh = 102

> O=C1C2Sc3[nH]c(=O)sc3C(/C=C/c3ccccc3)C2C(=O)N1c1ccc(Br)cc1 (stereo unspecified)
  Vaccinia pol inh = 98

Looked up by structure from above (three):
SMILES	Vaccinia pol inh
Cc1ccccc1Cn1c(=O)n(CCCS(=O)(=O)C2CCCCC2)c(=O)c2ccccc21	100
COc1ccc(-c2noc(N3CCC(C(=O)NC(C)c4ccccc4)CC3)n2)cc1 (stereo unspecified)	91
Cc1ccc(C(=O)Nc2sc3c(c2C(=O)N(C)C)CCCCC3)cc1	99

Next section
SMILES	Vaccinia pol inh
Cc1ccc(-n2[nH]c(=O)c(N=O)c2O)cc1C	93
O=C(Nc1ccccc1)N1CCCN(c2ccc(C(F)(F)F)cn2)CC1	104
CCc1ccc(Nc2c3c(nc4ccccc24)CCCC3)cc1	91
CC(C)COC(=O)C(C)Oc1ccc2c(=O)c(-c3ccccc3)coc2c1 (stereo unspecified)	100
Cc1cc(C)cc(OC(=O)c2ccc(Oc3cc(Cl)cc(Cl)c3)o2)c1	103
N#C/C(=C(/O)C(F)(F)F)c1nc2ccccc2s1	85
CC12CC3(C)CC(C)(C1)CC(CN=Cc1ccc(O)cc1)(C2)C3	100
S=C(c1cccs1)N1CCCC1	89
Cc1sc(-n2cccc2)c(C(=O)NC(C)CCc2ccccc2)c1C (stereo unspecified)	101
CCN(Cc1ccccc1)C(=O)C1CCN(Cc2ccc(SC)cc2)CC1	103
CC1=C(C(=O)Nc2cc(Cl)ccc2C(=O)NCc2ccc(OC(C)C)cc2)SCCO1	99

Compounds above containing a COOH group (2):
SMILES	Vaccinia pol inh
Cc1ccc(Oc2ncccc2NC(=O)CC(CC(=O)O)c2ccccc2)c2c1CCC2 (stereo unspecified)	89
N[C@@H](Cc1ccc(N(CCCl)CCCl)cc1)C(=O)O	97
